Screening results from PubChem BioAssay.
AID504770: growth inhibition of E. coli YBA685, primary screen, V. cholerae RctB inhibitors. z-score (test concentration not listed). 130,000 compounds, 0.27% hits. E. coli YBA685 rctB-dependent plasmid, OD600 growth, 3 h; stronger effect = lower value;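 active = z-score under -2 on both plates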;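 also: wells of about 30 µL received 100 nL stock; score is relative to mean and SD of the test wells; the first replicate is given; strong numbers were not always called active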
CapD inh: Bacillus anthracis CapD inhibitors, primary screen, biochemical, fluorescence intensity. CapD gamma-glutamyltranspeptidase (Bacillus anthracis Ames Ancestor). 140,000 compounds, 0.23% hits. purified CapD enzyme, fluorescence intensity read-out; stronger effect = lower value; some hits fall short of the stated cut. AID 492967, 2010. z-score (no concentration beside the values);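 active = z-score under -4 in either of two replicates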;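 also: stock transfer was 100 nL into about 40 µL; score is relative to mean and spread of the plate; one replicate is shown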
* marks the source's active call; other numbers are inactive results; . = not tested or not shown; & = joins results of further samples. Rows are unselected (roughly 0.37% active in at least one column).

SMILES | AID504770 | CapD inh
COc1cc(CN2CCN(C(=O)Cc3ccccc3)CC2)cc(OC)c1OC | -1.2 | -0.43
COc1cccc(NC(=O)CSC2=C(C#N)C(c3ccccc3)C(C(=O)Nc3ccccc3)=C(C)N2)c1 (centres undefined) | . | -0.56
Cc1cc2c(cc1C)-c1nc3ccccc3cc1C2=O | . | 0.32
COc1ccc(Nc2nc(-c3ccc([N+](=O)[O-])cc3)nc3ccccc23)cc1 | . | -0.17
S=c1[nH]nc(CSCc2ccc(Cl)cc2Cl)n1-c1ccccc1 | . | -0.22
COc1ccccc1C(CCNCc1cccs1)c1ccco1 (centres undefined) | -1.1 | -0.6
COc1cc(OC)nc(COc2ccc(C(=O)NCCN3CCOCC3)cc2)n1 | . | -0.69
Cn1c(Cc2nn(C)c(=O)c3ccccc23)nnc1SCC(=O)c1ccc(Cl)cc1Cl | -0.4 | 0.35
COc1ccc2oc(=O)cc(CN(C)CCC#N)c2c1 | 0.55 | 3.2
O=C(CSC(=O)c1ccccc1)NC1CCCCC1 | 1.1 | 0.3
CSc1n[nH]c2nc3c(c(=O)n12)C1(CCCC1)Cc1ccccc1-3 | 0.25 | 8.2
C=CCN(CC=C)S(=O)(=O)c1ccc(C(=O)N2CCCCC2)cc1 | 1.2 | 0.05
CC1SC2(C(=O)Nc3ccccc32)N(c2ccc(F)cc2)C1=O (centres undefined) | . | -0.37
Cc1ccc(CNC(=O)c2ccc(Cn3c(=O)[nH]c4ccccc4c3=O)cc2)o1 | 1.1 | 0.6
CC(C)(C)C(=O)[C@@H]1[C@@H](c2ccccc2Cl)C(C#N)(C#N)[C@H]2C=Cc3ccccc3N12 | . | 6
C1CCC2(CC1)OC1COC3OC4(CCCCC4)OC3C1O2 (centres undefined) | . | 0.21
O=C(Cn1ccc2ccccc2c1=O)NC1CCCCC1 | . | 12
O=C(c1ccc(C(F)(F)F)cc1)c1c[nH]c(C(=O)NCCCn2ccnc2)c1 | . | -0.16
Cc1ccc2[nH]c(=O)c3cc(C(=O)NCCC(C)C)sc3c2c1 | -0.35 | 0.3
COC(=O)CNC(=O)NC12CC3CC(CC(C3)C1)C2 | 0.15 | 0.54
CCCCCCOc1ccccc1C(N)=O | -0.2 | -0.37
COC(=O)c1sc(-c2ccc(C(C)(C)C)cc2)cc1NC(=O)CCC(=O)O | 0.95 | 7.5
CCOC(=O)N1CCN(C(=O)c2ccc3nc(-c4ccc(OC)c(OC)c4)c(-c4ccc(OC)c(OC)c4)nc3c2)CC1 | . | -1.2
CCOC(=O)N1CCC(=NNC(=O)COc2ccc(C)cc2C(C)C)CC1 | 1.3 | .
O=c1c(Cl)c(Cl)cnn1C1CCS(=O)(=O)C1 (centres undefined) | -0.05 | .
COc1ccc(OC)c(C2c3[nH]c4ccccc4c3CCN2C(=O)CCC(=O)O)c1 (centres undefined) | . | 0.33
CCOC(=O)N1CCN(C(=O)c2cc3c(ccc4ccccc43)oc2=O)CC1 | 0.05 | -0.2
COC(=O)c1sc(-c2cccs2)cc1N1C(=O)C=CC1=O | -1.4 | 119
Cc1c(Br)c([N+](=O)[O-])nn1CC(=O)Nc1sc2c(c1C(=O)OC(C)C)CCCC2 | . | -0.38
CCCCNC(=O)CSc1nc2sc(C(=O)OCC)c(C)c2c(=O)n1Cc1cccs1 | . | 1.7
Cc1nn(C)c2oc(=O)cc(C(F)(F)F)c12 | . | -1.5
C=C(C)Cc1c(COC)nc(-c2ccc(C)c(Cl)c2)nc1OC(=O)N(C)C | 0 | 0.23
CC(=O)N1CCc2cc(N(C(=O)Nc3ccccc3C(F)(F)F)C3CCN(Cc4ccccc4)CC3)ccc21 | . | 0.46
O=C(O)c1ccc(CSc2nnc(-c3ccncc3)n2CC2CCCO2)cc1 (centres undefined) | -0.05 | .
O=C1CC(c2ccccc2)Oc2ccc(F)cc21 (centres undefined) | 0.7 | .
O=C(CCn1c(=S)[nH]c2cc3c(cc2c1=O)OCO3)NC1CCCC1 | -2 | -0.62
O=C(Nc1ccc(OC(F)(F)F)cc1)OC1CN(C(c2ccccc2)c2ccccc2)C1 | -0.3 | -0.35
CC1Oc2ccccc2C=C1/C=C(\C#N)C(=O)NC1CCS(=O)(=O)C1 (centres undefined) | -0.55 | -1.4
Nc1nonc1-n1nnc(C(=O)O)c1-c1cccc2ccccc12 | -0.1 | -0.23
CCCc1cc(=O)oc2cc(OC(=O)/C=C/c3cccs3)ccc12 | 1 | 1.6
CCCOC(=O)c1cccc(NC(=O)OCC)c1 | -0.7 | -0.01
COC(=O)c1c(NC(=O)Cn2nc(C(F)(F)F)c(Br)c2C)sc2c1CCCC2 | . | -0.51
CCC(C)(C)c1cc2cc(N(C3CCN(Cc4ccccc4)CC3)S(=O)(=O)c3ccc(NC(C)=O)cc3)ccc2[nH]1 | . | 0.01
CC12CN(NC=O)C3(C#N)CC1CCC23C (centres undefined) | 1.7 | -0.29
Cc1noc(C)c1C(=O)OCC(=O)C12CC3CC(CC(C3)C1)C2 | 1.4 | .
c1ccc(CCN2CN=C(Nc3nc4ccccc4s3)NC2)cc1 | 0.4 | -0.23
Cc1cc(C)c2[nH]c(=O)c(CN(Cc3ccco3)C(=S)NCCCN3CCOCC3)cc2c1 | -0.35 | .
O=C(O)c1ccccc1C(=O)N1CCN(c2ccncc2)CC1 | -0.4 | 0.04
CCCN1CCC(N(C(=O)c2ccc(NC(=O)c3ccco3)cc2)C2CC2)CC1 | . | -0.57
Cc1cc2c(cc1C)NC(CC(=O)NC(C)c1ccccc1)C(=O)N2 (centres undefined) | 0.25 | 1.9
CCN(CC)S(=O)(=O)c1ccc(NC(=O)c2noc3c2COc2ccccc2-3)cc1 | -2.8 | 1.4
CCc1c(C(=O)OC)nnn1-c1nonc1N | -0.7 | -0.01
Cc1cc(O)c(C=O)c2c1C(=O)Oc1c(C)c(O)c3c(c1O2)C(O)OC3=O (centres undefined) | 0.25 | .
CCSc1nc(C(=O)O)cc(=O)[nH]1 | 0.7 | -0.38
Cc1noc(C)c1S(=O)(=O)N(CCC#N)Cc1ccccc1 | -0.7 | -0.2
O=C(c1ccc(CNS(=O)(=O)c2ccc(Br)cc2)cc1)N1CCCC1 | -0.9 | 0.48
NCc1ccc(CN2CCCC2)cc1 | 1.1 | .
O=C(Nc1c2c(nn1-c1ccc([N+](=O)[O-])cc1)CSC2)c1ccc(C(=O)c2ccccc2)cc1 | . | 0.1
CC(C)NC(=O)CSc1nnc(-c2ccc3ncccc3c2)n1C | . | 0.33
O=C(CCCSc1nnc(-c2ccc3c(c2)OCO3)o1)c1cccs1 | -0.55 | .

(listing goes on)
SMILES | AID504770 | CapD inh
CCCCNC(=O)CSc1nc2c(sc(=S)n2-c2ccccc2OCC)c(=O)[nH]1 | . | -1.6
CCc1ccc(NC(=O)c2noc3c2CCc2ccccc2-3)cc1 | -0.75 | 0.08
Cc1ccc(S(=O)(=O)NC(Cc2ccccc2)C(=O)O)cc1C (centres undefined) | -0.15 | -0.22
c1cc(NC2=NCCCCC2)ccc1NC1=NCCCCC1 | 0.05 | 0.9
O=C1OCCC1Sc1nnc(-c2cccs2)n1-c1ccccc1 (centres undefined) | 0.65 | .
O=C(CSc1ncn(-c2ccccc2)n1)NC1CCCCC1 | -0.55 | .
CC1(C)Nc2ccccc2C(=O)N1NS(=O)(=O)c1ccccc1 | 0.3 | 4.2
N#Cc1cc(-c2cnc3ccccc3n2)c(-c2ccncc2)[nH]c1=O | . | -0.35
CN(C)C(=O)Oc1ccc(-c2ccccc2)cc1 | -0.5 | -0.04
COc1ccsc1CN(Cc1ccccc1)C(=O)/C=C\C(=O)O | . | -0.26
Cc1noc(C)c1CC(=O)OCc1ccc(C#N)cc1 | 1.9 | .
CCc1c(C)[nH]n(CCC#N)c1=O | -0.7 | 0.8
CC(=O)CSc1nsc(SCC(C)=O)c1C#N | . | -0.24
COC(=O)c1ccc2c(c1)n(CCO)c(C)[n+]2CCO | 0.15 | .
Cc1[nH]c2ccccc2c1C(=O)COC(=O)c1ccc2c(=O)n3c(nc2c1)CCC3 | -1.9 | .
O=S(=O)(c1ccc2ccccc2c1)N1CCCc2ccccc21 | -0.15 | 0.08
Cc1cc(O)cc(=O)n1C | -1.4 | .
NNC(=O)Cn1c2ccccc2c2ccccc21 | -0.05 | 4.6
O=c1[nH]c2ccccc2nc1/C=C(\O)c1ccccc1 | 0.15&-1 | -0.6
Cc1ccc(NC(=O)Cn2c(Cc3ccccc3)nc3sc4c(c3c2=O)CCCC4)cc1Cl | . | 0.12
CCOC(=O)c1ccc(N2C(=O)C3C(c4ccccc4Cl)OC4(C(=O)c5ccccc5C4=O)C3C2=O)cc1 (centres undefined) | . | 0.3
Cc1ccc(-n2c(C)cc(C(=O)CN3CCC(C)CC3)c2C)cc1 | 0.3 | 0.1
O=C(Nc1ccccc1)OC1/C(=C/c2c(F)cccc2Cl)N2CCC1CC2 (centres undefined) | . | -0.15
CCN1CCN(C2CC(=O)N(CC)C2=O)CC1 (centres undefined) | -0.55 | -0.06
Cc1cccc(NS(=O)(=O)c2c(C)noc2C)c1 | -1 | -0.26
Cc1cc(C(=O)OCC(=O)N(C)c2ccccc2)c(C)o1 | 1.1 | -1.2
O=C(NCCCc1nc2ccccc2[nH]1)c1ccc(F)cc1 | -1.4 | 0.84
COc1ccc(CCNC(=O)CCn2c(=O)oc3ccccc32)cc1 | -0.75 | -0.005
C=CCOc1ccccc1/C=N/NC(=O)/C=C/c1ccc2c(c1)OCO2 | . | 0.01
CCN(CC(=O)c1c(N)n(Cc2ccccc2)c(=O)n(CC)c1=O)Cc1nc2ccccc2c(=O)[nH]1 | -0.25 | .
COc1cccc(-c2noc(COC(=O)c3ccccc3-c3ccccc3C#N)n2)c1 | 1.7 | .
O=C(NC(=S)Nc1ccc2c(c1)OCO2)c1ccccc1 | -0.1 | -0.27
CCC1=Nc2cc(C(=O)N3CCc4ccccc43)ccc2Sc2ccccc21 | -0.05 | 0.1
CN(C)C(=O)CSc1ncnc2sc3c(c12)CCCC3 | -0.05 | .
CC(=O)Nc1ccc(F)cc1[N+](=O)[O-] | . | -0.44
CCOC(=O)N1CCN(C(=O)c2c[nH]c3ccc(S(=O)(=O)N(C)c4ccc(C(C)C)cc4)cc3c2=O)CC1 | . | 3.3
CCn1c(=O)n(Cc2ccco2)c(=O)c2sc3ccccc3c21 | 0.8 | 25
Cn1cnnc1SCc1ccc(C(=O)N/N=C2\CCCc3ccccc32)cc1 | -0.9 | .
CC1=C(C(=O)Nc2cccc(C)n2)C(c2ccsc2)C2=C(CCCC2=O)N1 (centres undefined) | 1.8 | -0.22
Cc1ccc(C)c(NC(=O)OC(C)(C)C)c1 | 0.45 | 0.08
CC1CN(C(=O)/C=C/c2ccc3c(c2)OCO3)CC(C)O1 (centres undefined) | -0.15 | 6.8
O=C(NCCCO)c1ccncc1 | -0.2 | .
N#C/C(=C\NCc1ccccn1)S(=O)(=O)c1ccc(Cl)cc1 | -0.75 | -0.5
CN(C)C(=O)C[n+]1ccc(/C=N/O)cc1 | 0.65 | 0.38
CC1(C)COC(c2sccc2C(=O)O)=N1 | -0.7 | 1

A second format for some results above.
mol	AID504770	CapD inh
O=C(NC(=S)Nc1ccc2c(c1)OCO2)c1ccccc1	-0.1	-0.27
CCC1=Nc2cc(C(=O)N3CCc4ccccc43)ccc2Sc2ccccc21	-0.05	0.1
CN(C)C(=O)CSc1ncnc2sc3c(c12)CCCC3	-0.05	.
CC(=O)Nc1ccc(F)cc1[N+](=O)[O-]	.	-0.44
CCOC(=O)N1CCN(C(=O)c2c[nH]c3ccc(S(=O)(=O)N(C)c4ccc(C(C)C)cc4)cc3c2=O)CC1	.	3.3
CCn1c(=O)n(Cc2ccco2)c(=O)c2sc3ccccc3c21	0.8	25
Cn1cnnc1SCc1ccc(C(=O)N/N=C2\CCCc3ccccc32)cc1	-0.9	.
CC1=C(C(=O)Nc2cccc(C)n2)C(c2ccsc2)C2=C(CCCC2=O)N1 (centres undefined)	1.8	-0.22
Cc1ccc(C)c(NC(=O)OC(C)(C)C)c1	0.45	0.08
CC1CN(C(=O)/C=C/c2ccc3c(c2)OCO3)CC(C)O1 (centres undefined)	-0.15	6.8
O=C(NCCCO)c1ccncc1	-0.2	.
N#C/C(=C\NCc1ccccn1)S(=O)(=O)c1ccc(Cl)cc1	-0.75	-0.5
CN(C)C(=O)C[n+]1ccc(/C=N/O)cc1	0.65	0.38
CC1(C)COC(c2sccc2C(=O)O)=N1	-0.7	1

(next part)
SMILES | AID504770 | CapD inh
Cc1cc(C)n2nc3nc(N4CCOCC4)nc(-c4ccc(C(C)C)cc4)c3c2n1 | 0.95 | 0.12
Clc1nc2sccn2c1/C=N/n1cnc2ccccc21 | 0.85 | 0.3
CC1=CC(C)(C)CC(=S)N1c1cccc(F)c1 | -0.3 | 0.24
O=C(CSc1nnc2c3c4c(sc3ncn12)CCCC4)Nc1nccs1 | -0.05 | .
O=C1C=C(c2cccs2)C[C@H](c2cccs2)[C@H]1n1nnc([N+](=O)[O-])n1 | . | 0.09
CCN(C(=O)c1cc2cccc(OC)c2oc1=O)C1CCCCC1 | 0.15 | 0.41
Cc1ccc(-n2nnnc2SCC(=O)c2ccccc2)c(C)c1 | -0.25 | -0.77
COC(=O)Cc1nc(N2CCN(c3ccc(F)cc3)CC2)c2c(C)c(C)sc2n1 | . | 0.03
O=C(Cn1c(=O)[nH]c2ccsc2c1=O)NCc1cccs1 | -0.35 | -0.24
C=CCSC1=C(C#N)C(c2ccccc2Cl)C(C(=O)c2cccs2)C(O)(C(F)(F)F)N1 (centres undefined) | 1.3 | -0.27
O=C(O)CN1C(=O)/C(=C2\SC(=Nc3cccc(Cl)c3Cl)NC2=O)c2ccccc21 | . | -0.48
